# High-throughput results: PubChem, National Center for Advancing Translational Sciences (NCATS)
# miR-21 reporter – raises the signal of a miR-21 reporter | HeLa miR-21 FLuc reporter, luciferase, 48 h | Potency, µM (series often up to 38.3 µM), for the others: at the top dose reporter change, positive = more light | 340,000 tested, under 10 active | AID 2288; active = well fitted rising curve with a large enough effect; inconclusive = small, poorly fitted or top-dose-only effect; inactive = no such curve, though single readings can be large or run the other way;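 also: % of control where 0% means no effect; miR-21 action dims this reporter so a rising signal means less miR-21 action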
#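 Luminescence from a firefly luciferase reporter carrying a miR-21 binding site downstream, stably expressed under a CMV promoter in HeLa cells that make miR-21 endogenously, reports miRNA modulation after 48 h compound exposure up to approximately 40uM final.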
# Rango dissoc inh – inhibition of RanGTP-driven Rango-importin beta dissociation; O95149+P62826; Potency, µM (top dose mostly 46.1 µM), inactives show top-dose activity change, negative = inhibition; 340,000 compounds, 0.071% hits; Biochemical FRET Rango-importin beta, RanGTP-induced dissociation; active means falling FRET ratio curve, often poorly fitted, with flat reads before Ran was added; inconclusive means other falling curves, or compound fluorescence or quenching; inactive means flat or rising ratio curve;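 also: potency is read from the fitted curve at half-maximal effect; % of control where 0% means no effect; nearly all actives have a fitted effect of over 45% in size; -100% = wells without RanGTP and RCC1; the record marks most hits as doubtful in a second field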
#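 Rango/importin beta premix (0.1/0.25 uM final), PBS + 1 mM DTT + 0.02% Tween-20 + 0.1% BSA; cpd 5 min RT; FRET pre-read; + RanGTP-RCC1 (0.6 uM Ran, 2 mM GTP, 0.2 uM RCC1); 45 min RT; FRET post-read, ex 430, em 486/530 nm.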
# Rango-impB inh – prevents formation of the Rango-importin beta complex; Rango CFP/YFP FRET sensor + importin beta, 45 min; Potency, µM (highest dose often 92.2 µM), inactives show at the highest dose inhibition of complex formation; 340,000 compounds, 0.031% hits; active = rising FRET ratio curve, often small or poorly fitted; inconclusive = mostly compound fluorescence or quenching in the first reads; inactive = flat curves in all reads;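 also: potency is read from the fitted curve at half-maximal effect; 0% = DMSO wells and 100% = buffer wells lacking importin beta; nearly all actives have a fitted effect of over 15% in size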
# Target sequence (Q14974 whole entry, looked up): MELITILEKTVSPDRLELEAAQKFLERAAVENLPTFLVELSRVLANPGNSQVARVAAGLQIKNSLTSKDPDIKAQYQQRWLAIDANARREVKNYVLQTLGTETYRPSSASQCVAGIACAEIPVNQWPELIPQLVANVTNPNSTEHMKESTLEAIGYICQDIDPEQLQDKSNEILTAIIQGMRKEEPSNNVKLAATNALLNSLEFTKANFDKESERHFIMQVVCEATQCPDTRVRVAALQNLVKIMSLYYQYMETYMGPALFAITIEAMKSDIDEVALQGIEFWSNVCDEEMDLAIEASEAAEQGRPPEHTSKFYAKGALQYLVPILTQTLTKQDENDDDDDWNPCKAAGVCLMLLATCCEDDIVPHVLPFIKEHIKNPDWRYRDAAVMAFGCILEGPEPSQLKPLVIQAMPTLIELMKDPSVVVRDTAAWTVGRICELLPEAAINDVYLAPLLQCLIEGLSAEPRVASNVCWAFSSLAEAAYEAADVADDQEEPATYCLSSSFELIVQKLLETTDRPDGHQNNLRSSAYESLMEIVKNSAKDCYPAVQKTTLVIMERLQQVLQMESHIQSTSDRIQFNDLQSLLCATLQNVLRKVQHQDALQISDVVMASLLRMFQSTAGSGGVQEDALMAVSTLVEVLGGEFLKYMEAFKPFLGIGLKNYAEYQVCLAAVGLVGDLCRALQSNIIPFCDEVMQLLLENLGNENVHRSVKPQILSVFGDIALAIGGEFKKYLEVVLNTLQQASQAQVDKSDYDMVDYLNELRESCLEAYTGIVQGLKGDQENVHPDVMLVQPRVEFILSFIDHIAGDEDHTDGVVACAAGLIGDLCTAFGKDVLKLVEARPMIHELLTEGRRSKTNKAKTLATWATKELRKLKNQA
#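 Inhibition scored from the CFP 486 nm/YFP 530 nm FRET ratio 45 min after adding 0.125 microM importin beta to 50 nM Rango biosensor preincubated 5 min with compound (room temperature, PBS with DTT, Tween-20, BSA). No-importin wells as positive control.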
# GLA inh pH 4.5 – inhibitors of human alpha-galactosidase A at pH 4.5. purified enzyme, 4-MU-alpha-Gal fluorescence, pH 4.5. P06280. activity change, negative = inhibition, % at 105 µM. 230,000 tested, under 10 active. AID 1467; inconclusive = small, poorly fitted or top-dose-only inhibition, or a rising curve; inactive = flat fitted curve, though single readings scatter; no compound was filed as active;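 also: 0% = full activity with enzyme and -100% = basal without enzyme; dose as in the result columns while the protocol names 77 µM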
# Numbers without * were called inactive; ? = inconclusive; · = no result given. These rows are one share of the data; rates above refer to the full screens.
entry	SMILES	miR-21 reporter	Rango dissoc inh	Rango-impB inh	GLA inh pH 4.5
1	Cc1c(NS(=O)(=O)c2cc(C(=O)NC(C)c3ccccc3)ccc2Cl)c(=O)n(-c2ccccc2)n1C (centres undefined)	·	-19%	-2.8%	·
2	Cc1cccc(S(=O)(=O)N2CCN(Cc3ccc4c(c3)OCO4)CC2)c1	-7%	11%	-0.7%	·
3	O=C(Nc1ccc(S(=O)(=O)Nc2ncccn2)cc1)c1ccccc1Br	-5%	-3%	-0.5%	·
4	O=C1CCc2cc(S(=O)(=O)N3CCN(c4cccc(Cl)c4)CC3)ccc2N1	0%	-11%	6.5%	7
5	Cc1cccc(OCC(=O)N/N=C\c2cc3c(cc2[N+](=O)[O-])OCO3)c1C	-7%	6%	-4.9%	1
6	CCOc1ccc(C(C(=O)NCCC(C)C)N(CCO)C(=O)c2snc(C(N)=O)c2N)cc1 (centres undefined)	-15%	5%	0.0%	·
7	CN(c1ccccc1)S(=O)(=O)c1cccc(NS(=O)(=O)c2ccc(/C=C/C(=O)O)cc2)c1	0%	12%	2.8%	11
8	Cc1ccccc1-c1nc(CS(=O)(=O)CC(=O)NCCCN2CCCC2)c(C)o1	-7%	-7%	-1.9%	-2
9	Cn1c(=O)c2c(nc(SCC(=O)O)n2Cc2cccc(C(F)(F)F)c2)n(C)c1=O	-5%	-5%	-0.7%	-5
10	O=S(=O)(Nc1cccc2cn[nH]c12)c1ccc(F)cc1	-17%	16%	4.4%	7
11	Cn1cnnc1SCC(=O)N1CCC(Cc2ccccc2)CC1	-10%	3%	-2.5%	-4
12	CC(C)NC(=O)C(C)n1cccc1C(=O)c1ccccc1 (centres undefined)	-3%	-2%	3.3%	10
13	CCCN(CCC)Cc1c(C(=O)N/N=C/c2ccsc2)nnn1-c1nonc1N	1%	14%	0.2%	·
14	COc1ccccc1CCNC(=O)C(=O)NCCC1CCCCN1S(=O)(=O)c1cccs1 (centres undefined)	·	1%	-0.3%	·
15	C[C@@H](CSc1ccccc1)CN1CC[C@H](O)CCC1=O	2%	-11%	3.8%	·
16	COCCCNC(=O)Cn1c(=O)n(Cc2ccc(F)cc2)c(=O)c2sccc21	-2%	-3%	-0.4%	·
17	CCOc1ccc(S(=O)(=O)N2CCC(C(=O)OC(C)C(=O)NC3CCCCC3C)CC2)cc1 (centres undefined)	·	1%	-3.4%	·
18	COc1cccc(NC(=O)Cn2c(=O)n(-c3ccccc3)c(=O)c3sccc32)c1	-6%	-4%	-1.0%	11
19	Cc1cc(=O)oc(C)c1C(=O)NC12CC3CC(CC(C3)C1)C2	-1%	-3%	-1.1%	-1
20	Cn1cc(Br)c(C(=O)NNC(=O)Nc2ccccc2C(F)(F)F)n1	-28%	0%	0.6%	-1

# Results in sequence from above:
# Entries 5 to 13 in Rango dissoc inh, in turn: 6%, 5%, 12%, -7%, -5%, 16%, 3%, -2%, 14%

# Next records follow:
entry	SMILES	miR-21 reporter	Rango dissoc inh	Rango-impB inh	GLA inh pH 4.5
21	O=C(Nc1ncnc2c1C(c1ccccc1)c1c(ccc3ccccc13)O2)c1ccccc1 (centres undefined)	·	33%	-3.4%	·
22	O=S(=O)(NCC(c1ccc2c(c1)OCO2)N1CCOCC1)c1ccc(Cl)cc1 (centres undefined)	·	18%	-5.9%	·
23	CC(=O)c1c(CSc2ccccc2)oc2ccc(O)c(CN(C)C)c12	-1%	-12%	3.3%	·
24	O=C(CCNS(=O)(=O)c1cccc2nsnc12)N1CCc2ccccc21	-5%	-8%	2.2%	4
25	COc1ccc(Sc2ccccc2CN(C)C)cc1OC	-7%	1%	-0.1%	-2
26	CC1CC(=O)N(C)c2ccc([N+](=O)[O-])cc2N1 (centres undefined)	-4%	15%	-0.6%	-1
27	Clc1ccc(-c2nnc(-c3cccnc3)o2)cc1	-39%	0%	-2.7%	·
28	COc1cccc(C2/C(=C(\O)c3ccc4c(c3)OCCO4)C(=O)C(=O)N2CCN(C)C)c1 (centres undefined)	-13%	-14%	0.8%	-6
29	CN(NC1OC(=O)c2ccccc21)c1ccc(C(F)(F)F)cc1[N+](=O)[O-] (centres undefined)	-14%	0%	3.6%	-3
30	Cn1c(=O)c2cn3c(c2n(C)c1=O)C(c1ccccc1)CC(c1ccccc1)=N3 (centres undefined)	-55%	1%	0.1%	6
31	O=[N+]([O-])c1ccc(N2CCN(C(=S)NC3CCCCC3)CC2)cc1	8%	-10%	?	0
32	CC(=O)Nc1ccc(-c2csc(NC(=O)C3=COCCO3)n2)cc1	·	-19%	0.0%	·
33	CCC(C(=O)NCc1ccc(F)cc1)n1nc(C)n2c(cc3occc32)c1=O (centres undefined)	-6%	5%	1.3%	·
34	COc1ccc(-c2nnc(N3CCOCC3)c3ccccc23)cc1	-14%	4%	-0.3%	·
35	COC(=O)N/N=C/c1cccc(OC(=O)c2ccc3c(c2)OCO3)c1	-19%	7%	3.2%	-6
36	CCN(Cc1cc(=O)n2ccsc2n1)Cc1nc2cc(OC)c(OC)cc2c(=O)[nH]1	1%	0%	-2.2%	-2
37	COc1ccc(C2NC(=O)CCC2[N+](=O)[O-])cc1OC (centres undefined)	3%	15%	-1.5%	·
38	Cc1ccccc1NC(=O)COC(=O)c1cc[n+]([O-])cc1	·	?	0.0%	·
39	CN1CCN(CCCNC(=O)c2cc3c(=O)oc4ccccc4c3s2)CC1	-1%	10%	-0.5%	-4
40	COc1ccc(NC(=O)NCc2ccncc2)cc1	-2%	-9%	0.3%	-8

# As entered above.
# Rango dissoc inh, O=C(Nc1ccc(S(=O)(=O)Nc2ncccn2)cc1)c1ccccc1Br is entered as -3%
# Rango-impB inh, COc1ccccc1CCNC(=O)C(=O)NCCC1CCCCN1S(=O)(=O)c1cccs1 (centres undefined) is entered as -0.3%

# Remaining list, next part
entry	SMILES	miR-21 reporter	Rango dissoc inh	Rango-impB inh	GLA inh pH 4.5
41	CCCC1(c2ccccc2)NC(=O)N(C/C=C/Cl)C1=O (centres undefined)	12%	-1%	-0.1%	·
42	Cc1ccc(-c2cc(C(=O)Nc3ccc(S(=O)(=O)Nc4ncccn4)cc3)[nH]n2)c(O)c1C	-28%	-1%	-10%	-15
43	O=P(C(=NCCO)NO)(N1CCOCC1)N1CCOCC1	-4%	-4%	-1.8%	·
44	Cc1ccc(/C=N/NC(=O)c2cccc([N+](=O)[O-])c2)o1	-4%	6%	-0.2%	-5
45	O=C(OCc1cnc(Cl)s1)c1c(F)cccc1F	-4%	0%	0.4%	2
46	COc1ccc(CCNC(=O)c2cc(C(C)C)on2)cc1OC	-15%	-6%	5.3%	6
47	CC(=O)c1c(C)[nH]c(C(=O)COC(=O)CN(C)S(=O)(=O)c2ccc(Cl)cc2)c1C	-2%	-11%	-0.3%	5
48	CCOC(=O)c1[nH]c(C)c(C(=O)N2CCN(c3ccc(OC)cc3)CC2)c1C	-1%	-1%	-0.1%	11
49	CSCC[C@H](NC(=O)[C@@H]1Cc2ccccc2CN1)C(=O)NC1CCCCC1	-3%	-8%	0.1%	·
50	CCOC(=O)N1CCN(S(=O)(=O)c2cc(Br)cc3c2N(C(=O)CC)CC3)CC1	0%	5%	-2.5%	2
51	O=C(c1ccccc1)C(O)C(c1ccccc1)N1CCOCC1 (centres undefined)	-7%	-1%	-1.2%	·
52	CCCc1nc2ccc(NC(=O)NCCC(=O)OCC)cc2c(=O)n1Cc1cccc(Cl)c1	7%	-7%	0.7%	-7
53	COc1ccc(/C=C2\Oc3cc(OCC(=O)N4CCC[C@H]4CO)ccc3C2=O)c(OC)c1	-14%	?	?	·
54	CC(=O)c1c(C)[nH]c(C(=O)NCc2ccco2)c1C	-3%	5%	4.0%	-1
55	COC(=O)c1ccc(N2CCN(C)CC2)c(NC(=O)COc2ccc(OC)cc2)c1	-2%	28%	-1.5%	2
56	O=C1CC(=O)CC(c2ccccc2Cl)C1	-11%	-16%	-1.1%	-2
57	COc1cccc(CNS(=O)(=O)c2ccc3c(c2)NC(=O)CS3)c1	2%	0%	3.6%	·
58	CC(=O)Cc1nsc(NC(=O)c2cccc(F)c2)n1	-50%	1%	4.0%	-3
59	O=C(COC(=O)c1cnccn1)Nc1ncc(Cl)cc1Cl	·	-15%	?	·
60	O=C(NCc1ccc2c(c1)OCO2)c1cccc(S(=O)(=O)N2CCOCC2)c1	-2%	1%	6.2%	1

# Remaining list, next part.
entry	SMILES	miR-21 reporter	Rango dissoc inh	Rango-impB inh	GLA inh pH 4.5
61	CC1(C)C([N+](=O)[O-])C(c2ccc(F)cc2)NC(c2ccc(F)cc2)C1[N+](=O)[O-] (centres undefined)	0%	11%	0.7%	-8
62	Cc1cccc(CSc2nnc(CCNC(=O)OC(C)(C)C)o2)c1	-2%	7%	-0.8%	-5
63	CCc1ccc(-c2cnc3nc[nH]c(=O)c3n2)cc1	·	3%	-4.1%	·
64	CCOC(=O)c1c[nH]c2c(C(=O)c3ccccc3)cc(Cl)cc2c1=O	0%	-6%	1.2%	·
65	COc1ccccc1NC(=O)C(=O)N/N=C/c1cccs1	-53%	13%	-3.4%	-16
66	CC(C)CCNC(=O)CSc1nnc(-c2ccc(S(=O)(=O)N3CCCC3)cc2)n1C	1%	8%	-1.3%	-1
67	COc1ccc2oc(C(=O)OCC(=O)NC(C)(C#N)C3CC3)c(C)c2c1 (centres undefined)	·	0%	-0.9%	·
68	Cc1nn(Cc2ccc([N+](=O)[O-])cc2)c(=O)n1-c1ccc(F)cc1	0%	3%	2.3%	2
69	O=C(c1ccco1)N1CCN(Cc2nnc(-c3ccccc3F)o2)CC1	0%	-4%	-0.2%	·
70	COc1ccc(Cl)cc1NC(=O)CNCc1cccs1	-8%	-9%	1.6%	·
71	Brc1ccccc1OCCCCCN1CCCC1	-16%	·	·	-13
72	COc1ccc(N2CCN(c3ccc(NC(=O)NN)cc3)CC2)cc1	-1%	4%	5.1%	·
73	COc1cccc(-c2c(NC(=O)c3ccco3)oc3ccc(Cl)cc3c2=O)c1	-3%	-29%	-2.3%	·
74	C[C@@H]1CC[C@]2(C(=O)O[C@@H]3O[C@H](CO)[C@@H](O)[C@H](O)[C@H]3O)CC[C@]3(C)C(=CCC4[C@@]5(C)CC[C@H](O[C@@H]6OC[C@H](O)[C@H](O[C@@H]7O[C@H](CO)[C@@H](O)[C@H](O)[C@H]7O)[C@H]6O)C(C)(C)C5CC[C@]43C)C2[C@]1(C)O (some centres undefined)	·	2%	-4.0%	·
75	O=C(NCc1ccco1)c1cnc2ccccn2c1=O	-2%	53%	7.4%	-1
76	Cn1c(CN2CCCC2)nc2cc(NC(=O)Nc3ccccc3)ccc21	-41%	0%	0.5%	-5
77	Cc1cccc2nc(Cn3c(=O)n(CCC(=O)NCc4ccco4)c(=O)c4sccc43)cc(=O)n12	-4%	-15%	3.8%	-4
78	Cc1ccc(S(=O)(=O)/N=C(\CN2CCOCC2)N2CCOCC2)cc1	0%	18%	-1.1%	1
79	CCc1cccc2c(C=C(C#N)C#N)cn(CC(=O)N3CCCCCC3)c12	0%	?	?	-7
80	CCOC(=O)C1CCN(C(=S)NC2CC3C=CC2C3)CC1 (centres undefined)	2%	-8%	-0.1%	-6

# (cont.)
entry	SMILES	miR-21 reporter	Rango dissoc inh	Rango-impB inh	GLA inh pH 4.5
81	CSc1nc2ccc(N3C(=O)C4CCCCC4C3=O)cc2s1 (centres undefined)	-18%	9%	1.3%	-22
82	COc1ccccc1/C=C\C=N\NC(=O)CCn1nnc2ccccc21	-7%	4%	1.6%	-4
83	CS(=O)(=O)c1ccc(Cl)c(NC(=O)c2cccc(Br)c2)c1	-10%	1%	0.6%	-6
84	Cn1nnnc1Sc1ncnc2scc(-c3ccsc3)c12	·	0%	0.1%	·
85	Cc1ccc2c(c1)C1CN(C)CCC1N2C(=O)COc1ccc(N(C)C(=O)c2ccccc2)cc1 (centres undefined)	-2%	5%	-3.1%	-14
86	C[C@H](CCC(=O)OCc1cn(CC(=O)c2ccc(O)cc2)nn1)C1CC[C@H]2[C@@H]3CC[C@@H]4C[C@H](O)CC[C@]4(C)[C@H]3C[C@H](O)[C@]12C (some centres undefined)	·	-3%	1.2%	·
87	Nc1nnnn1CC(=O)N/N=C/c1ccc(-c2cccc(Cl)c2)o1	-18%	-11%	-0.8%	-2
88	CCCCCN(C(=O)NC(=O)Nc1ccc(C)cc1C)S(C)(=O)=O	-4%	23%	-2.7%	3
